# NPYLR7 agonist: agonists of mosquito NPYLR7 receptor, primary screen, cell-based, Aedes aegypti, calcium fluorescence, mosquito biting behavior; Aedes aegypti neuropeptide Y-like receptor 7 (NPYLR7); HEK293T NPYLR7/Galpha15, GCaMP6s calcium fluorescence; activation, % at 10 µM; 270,000 compounds, 0.15% hits; in the data active means activation above about 40%;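 further: 0% = vehicle and 100% = reference agonist at the receptor; some compounds past the cut are filed as inactive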
# NPYLR7 agonist max-min: recorded beside NPYLR7 agonist, whose call it bears; activation, %; measured here: Max-Min RFU normalised activation; some inactives read as strong as hits;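 span of the calcium signal over five minutes; 0% = vehicle and 100% = native peptide agonist; compound fluorescence can raise it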
# * marks the source's active call; other numbers are inactive results.
nr	SMILES	NPYLR7 agonist	NPYLR7 agonist max-min
1	Cc1cc(C(=O)N2CCC(n3nccc3NC(=O)Nc3ccccc3Cl)CC2)c(C)o1	1	-1
2	O=C(O)Cn1c(O)c(C2=c3ccccc3=NC2=O)sc1=S	-6	-11
3	CN1C(=O)NC(c2ccc(Cl)cc2)C2=C1CN(C(Cc1ccccc1)C(=O)NC1CCCCC1)C2=O (stereo not drawn)	0	7
4	CCOC(=O)c1ccc(OC2CC3CCC(C2)N3C(=O)c2ccc(CSc3nccs3)cc2)cc1 (stereo not drawn)	6	9
5	COc1ccc(-n2c(C)nnc2SCc2ccc(C(=O)NCc3cccc(C(F)(F)F)c3)cc2)cc1	-4	4
6	CC(C)c1ccc(NC(=O)CSc2ccc(NC(=O)C3CC3)nn2)cc1	-3	-2
7	Cc1cc(Nc2ccccc2)n2nc(C)c(-c3ccc(Cl)cc3)c2n1	-6	-7
8	Cc1ccccc1-n1c(=O)c2c(n3cnnc13)-c1ccccc1CC21CCCCC1	3	-1
9	Cn1cc(/C=C/c2nc(N)nc(-c3ccccc3O)n2)c2ccccc21	6	2
10	O=C(NCC1CCCN(Cc2ccccc2O)C1)C1(c2ccc(Cl)cc2)CC1 (stereo not drawn)	-2	-3

# Reprinted from the part before: five compounds, then new ones.
nr	SMILES	NPYLR7 agonist	NPYLR7 agonist max-min
6	CC(C)c1ccc(NC(=O)CSc2ccc(NC(=O)C3CC3)nn2)cc1	-3	-2
7	Cc1cc(Nc2ccccc2)n2nc(C)c(-c3ccc(Cl)cc3)c2n1	-6	-7
8	Cc1ccccc1-n1c(=O)c2c(n3cnnc13)-c1ccccc1CC21CCCCC1	3	-1
9	Cn1cc(/C=C/c2nc(N)nc(-c3ccccc3O)n2)c2ccccc21	6	2
10	O=C(NCC1CCCN(Cc2ccccc2O)C1)C1(c2ccc(Cl)cc2)CC1 (stereo not drawn)	-2	-3
11	CC(=O)Nc1cccc(NC(=O)Cn2nc(-c3cccs3)c3sc(C)nc3c2=O)c1	2	0
12	COc1ccc(C(=O)C=Cc2cc(Br)ccc2F)cc1	0	7
13	Cc1ccc(-c2nnc(SCCCC(=O)NCCc3ccc(Cl)cc3Cl)n2-c2ccc(C)cc2)cc1	-1	8
14	CCC1=NOC(C(=O)NCc2cccnc2Oc2ccc(C)nc2)C1 (stereo not drawn)	18	1
15	COCCN1C(=O)C2(SCCN2C(=O)Nc2ccc(C)c(C)c2)c2ccccc21 (stereo not drawn)	-7	11
16	Cc1ccc(-n2nc(-c3ccccc3Cl)cc2C(=O)Nc2ccc(F)cc2)cc1	14	19
17	Cc1cc(NCC(c2ccco2)N2CCCCC2)c2ccccc2n1 (stereo not drawn)	-1	-2
18	COc1cc2c(cc1OC)C(c1ccccc1)N(C(=O)c1ccc(-c3ccc(C4CCCCC4)cc3)s1)CC2 (stereo not drawn)	26	9
19	CCS(=O)(=O)CC(=O)Nc1cc(C)nn1-c1cccc(Cl)c1	-18	-21
20	COc1ccc(C(=O)Nc2cccc(C3SCC(=O)N3c3ccc4c(c3)OCCO4)c2)cc1 (stereo not drawn)	12	9

# Following part:
nr	SMILES	NPYLR7 agonist	NPYLR7 agonist max-min
21	CC(C1CCN(Cc2ccc(-c3ccccn3)cc2)CC1)N1CCN(C)CC1 (stereo not drawn)	3	3
22	C=CCCC(O)CN(CCOC)Cc1cc(OC)cc(OC)c1 (stereo not drawn)	18	27
23	CCCN(CC1CC1)C(=O)CSc1n[nH]c(-c2cccs2)n1	25	26
24	C=CC(=O)Nc1cccc(Oc2nc(Nc3ccc(N4CCN(C)CC4)cc3OC)ncc2Cl)c1	-5	-10
25	Cc1noc(CNC(=O)NC2CCC(c3ccccc3)CC2)n1 (stereo not drawn)	-2	-3
26	Cc1ccc(C(=O)n2nc(C)c(Sc3ccccc3)c2C)cc1	-1	-1
27	CCC(C)NCc1ccc(N(CC)CC)cc1OS(=O)(=O)c1ccc(OC)cc1 (stereo not drawn)	2	-1
28	C=CCNCc1nc2scc(-c3ccc(Cl)cc3)c2c(=O)[nH]1	9	10
29	COC(=O)c1c(N)ncn1-c1ccccc1	-4	-5
30	Cc1cc(=O)n2c(n1)SCC2CC(=O)NC1CC1 (stereo not drawn)	-3	-5

# Next records:
nr	SMILES	NPYLR7 agonist	NPYLR7 agonist max-min
31	CC(C)CN(CC(=O)N(CCc1c[nH]c2ccccc12)Cc1ccc(C(C)(C)C)cc1)CC(O)COCc1ccccc1 (stereo not drawn)	-3	-12
32	COc1cc2nc(CN(C)CC(=O)NC3CC3)[nH]c(=O)c2cc1OC	0	11
33	CCOC(=O)C(Cc1ccc(Cl)cc1)NC(=O)CCC(=O)N1CCc2c([nH]c3ccccc23)C1 (stereo not drawn)	-6	-5
34	CCCCCCCCCCCC(=O)N1CCSC1c1ccc(C)cc1C (stereo not drawn)	-6	4
35	Cc1cc(C(=O)N(Cc2ccco2)c2nc3ccccc3s2)nn1C	7	6
36	O=C(Cn1cc2ccccc2n1)NC1CC(=O)N(CC2CCCCC2)C1 (stereo not drawn)	4	-2
37	CS(=O)(=O)c1nc(-c2ccccc2)cc(C(F)(F)F)n1	3	3
38	O=C1c2ccccc2-c2c(-c3ccccc3)sc(=O)n21	7	10
39	Cc1cc(C)n2c(NC3CCCCC3)c(-c3ccccc3C)nc2n1	3	10
40	CC(C)(C)NS(=O)(=O)c1ccc(C(=O)OCC2CCCCO2)o1 (stereo not drawn)	0	17

# Ordered by molecular weight (low to high): some entries from above.
nr	SMILES	NPYLR7 agonist	NPYLR7 agonist max-min
38	O=C1c2ccccc2-c2c(-c3ccccc3)sc(=O)n21	7	10
33	CCOC(=O)C(Cc1ccc(Cl)cc1)NC(=O)CCC(=O)N1CCc2c([nH]c3ccccc23)C1 (stereo not drawn)	-6	-5
31	CC(C)CN(CC(=O)N(CCc1c[nH]c2ccccc12)Cc1ccc(C(C)(C)C)cc1)CC(O)COCc1ccccc1 (stereo not drawn)	-3	-12

# (next part)
nr	SMILES	NPYLR7 agonist	NPYLR7 agonist max-min
41	CN(Cc1ccccc1)C(=O)Nc1ccc2c(c1)CCC2	9	6
42	CCCCS(=O)(=O)NC1CCCC(C(=O)NC2CC2)C1 (stereo not drawn)	6	5
43	COc1cccc(Cc2nsc(Oc3ccc(CC(=O)N4CCN(c5ccc([N+](=O)[O-])cc5)CC4)cc3)n2)c1	20	28
44	CCC(C(=O)NCCCN(CC)CC)n1ncn2c(cc3occc32)c1=O (stereo not drawn)	-4	-2
45	COc1ccc(C2c3cccn3CCN2C(=O)Nc2cccs2)cc1OC (stereo not drawn)	15	10
46	CCc1ccc2nc(N(CCCN3CCOCC3)C(=O)c3cccs3)sc2c1	-4	-4
47	Cc1nc(-c2ccc(F)cc2)c(CC(=O)N2CCN(C(=O)C3CCCO3)CC2)s1 (stereo not drawn)	2	0
48	CSc1ccc(NC(=O)c2cccc(-c3nnc(C)o3)c2)cc1F	2	-1
49	CCCC(O)CN1CCC(=O)N(CC(=O)C(C)(C)C)Cc2ccccc21 (stereo not drawn)	-1	1
50	O=C(Nc1cc(F)cc(F)c1)N1CCc2[nH]nc(C(F)(F)F)c2C1	19	13

# (more compounds)
nr	SMILES	NPYLR7 agonist	NPYLR7 agonist max-min
51	O=C(O)C1CC2(CCNCC2)CN1CCOc1ccccc1 (stereo not drawn)	2	3
52	CCN1CCCC(N2CCNCC2)C1 (stereo not drawn)	-2	0
53	COc1cccc2c1OCC(C(=O)NC1CCC(n3cnnc3)CC1)C2 (stereo not drawn)	12	11
54	NS(=O)(=O)c1ccc(NS(=O)(=O)c2ccc(Cl)c([N+](=O)[O-])c2)cc1	0	-2
55	COCC1(C(=O)NCc2ccc(-c3ccccn3)s2)CCC1	6	4
56	OCCC1CN(C2CCN(c3ccccc3)CC2)CCN1CC1CCCCC1 (stereo not drawn)	4	0
57	O=C([C@@H]1C[C@@H]2C=C[C@H]1C2)N1CCC(C2(c3ccccn3)NC(=O)N(CCc3cccs3)C2=O)CC1 (stereo partly drawn)	25	12
58	CC(c1ccc(-n2cncn2)cc1)N(C)CC(=O)Nc1ccc(F)c(F)c1 (stereo not drawn)	2	5
59	CCOc1ccc(-c2nc(CC(=O)N3CCCSCC3)cs2)cc1	3	1
60	CN(Cc1ccc(-n2cccn2)cc1)Cc1cccc2nonc12	14	9

# Next records.
nr	SMILES	NPYLR7 agonist	NPYLR7 agonist max-min
61	CCn1c(C2CCN(C(=O)CCn3nnc4ccccc43)CC2)nn(C)c1=O	5	3
62	CC(Cc1cccs1)Nc1ccc(-c2nccn2C)nn1 (stereo not drawn)	10	5
63	O=C(NC(COCc1ccccc1)c1ccccc1)c1ccc(=O)[nH]n1 (stereo not drawn)	16	13
64	CC(C(=O)Nc1ccc2c(c1)OCO2)N1CCN(c2ccccn2)CC1 (stereo not drawn)	6	4
65	CCc1cc(CNC(=O)CCOC(C)C)[nH]n1	-8	-10
66	COCCNC(=O)c1ccc(CSc2nnc(Cc3ccccc3)n2-c2ccc(OC)cc2)cc1	-4	-4
67	CC(=O)Nc1ccc(-c2nc3ncccc3o2)c(Cl)c1	16	19
68	CCC1CCCCN1C(=O)c1cnc2nc(C)ccc2c1Nc1ccc(OC)c(Cl)c1 (stereo not drawn)	1	-1
69	c1ccc(-c2nnc(N3CCN(Cc4ccc5c(c4)OCO5)CC3)c3ccccc23)cc1	0	-2
70	CNc1ccc(-c2ccc(OC)cc2OC)cn1	2	0

# The list goes on.
nr	SMILES	NPYLR7 agonist	NPYLR7 agonist max-min
71	C=C(C(=O)O)[C@@H]1CC[C@@]2(C)CCC[C@](C)(O)[C@@H]2C1	3	1
72	CCc1cccc(NC(=O)CCC(=O)NC(C)c2ncn[nH]2)c1 (stereo not drawn)	8	2
73	Cc1nc2c(-c3ccccc3)cnn2c(N2CCN(c3ccccc3)CC2)c1C	4	5
74	O=C(c1cn(CCCc2ccccc2)nn1)N1CCN(C2CCCC2)C(=O)C1	-4	-7
75	CCCC(=O)NC(c1ccc(F)cc1)c1nccn1C (stereo not drawn)	11	7
76	Clc1cc(CN2CCc3ccccc32)ccn1	-1	20
77	COc1cn(CC(N)=O)c(CN2CCCCC2)cc1=O	-3	-3
78	CCOC(=O)c1nc2ccccc2nc1N1CCN(S(=O)(=O)c2c(C)c(C)c(C)c(C)c2C)CC1	9	4
79	COc1ccccc1CN(CCN1CCOCC1)Cc1nc(C(=O)N2CCN(C(C)=O)CC2)co1	13	7
80	NC(=O)C1CCN(S(=O)(=O)c2c(Cl)nc3ccccn23)CC1	12	11

# Continuation.
nr	SMILES	NPYLR7 agonist	NPYLR7 agonist max-min
81	COc1cccc(C2CCCN2Cc2nc(-c3ccc(OC)c(OC)c3OC)no2)c1 (stereo not drawn)	21	17
82	Cc1nc2c(C(=O)N3CCc4onc(-c5ccccc5)c4C3)cccc2[nH]1	20	20
83	CC(C)(C)c1cc(CN2CCCC(N3CCCC3=O)C2)[nH]n1 (stereo not drawn)	3	-1
84	CN(Cc1ccccc1)c1nc2c(c(=O)[nH]c(=O)n2C)n1CCCSc1ncccn1	4	1
85	NC(=O)c1ccc[n+](Cc2nc3ccsc3c(=O)[nH]2)c1	14	11
86	CCOc1cccc(-c2cc(N3CCN(CCO)CC3)n3nccc3n2)c1	-1	-5
87	CN1CCN(C(=O)C2CCCN2c2nc3ccccc3s2)CC1 (stereo not drawn)	6	1
88	Cc1ncc2c(n1)C(C)N(Cc1cc(C)on1)C2=O (stereo not drawn)	19	15
89	CCOCCCN(CC(=O)N(Cc1cccn1Cc1ccc(F)cc1)C1CCCCC1)C(=O)c1ccc2c(c1)OCO2	-8	-5
90	CCn1c(SCC(=O)c2cccc(F)c2)nnc1-c1cc(-c2ccccc2)nc2ccccc12	-4	-4

# The list continues:
nr	SMILES	NPYLR7 agonist	NPYLR7 agonist max-min
91	CCc1c(C(=O)OC)sc2nc(CN(CC(O)Cc3ccccc3)C(C)C)[nH]c(=O)c12 (stereo not drawn)	25	25
92	COc1cccc(C(=O)N(CC(=O)N2CCc3sccc3C2COc2ccc(C)cc2C)C2CC2)c1 (stereo not drawn)	-2	2
93	O=C(NCc1nnnn1-c1ccccc1)C1c2ccccc2Oc2ccccc21	1	-2
94	COCCCN(Cc1ccc(OC)cc1)CC(O)Cc1ccccc1 (stereo not drawn)	-6	-2
95	CCOC(=O)C1(Cc2ccccc2C)CCCN(Cc2cn(CC(N)=O)c3ccccc23)C1 (stereo not drawn)	10	11
96	O=C(C1CCN(c2ccc(Cl)cn2)CC1)N1CCCc2c(F)cc(F)cc21	11	7
97	N#Cc1c(N)nc2c3c(sc(=N)c2c1N)NC(=O)CC3c1ccccc1 (stereo not drawn)	1	14
98	Fc1ccc(CNCc2ccc3c(c2)OCO3)c(F)c1	2	-1
99	CCN(CC)C1CCN(C(=O)CCn2nnnc2CN2CCOCC2)C1 (stereo not drawn)	8	0
100	O=c1c(O)cccc2cc(O)c(O)c(O)c12	16	8

# Further results follow.
nr	SMILES	NPYLR7 agonist	NPYLR7 agonist max-min
101	CCn1c(CCNC(=O)C(C)C)nc2ccccc21	5	-5
102	CC(NC(=O)CN1CCCC1c1cccs1)c1ccc(F)cc1 (stereo not drawn)	6	6
103	COCCN1C(=O)C=C(Nc2ccccc2C(=O)O)C1=O	3	7
104	N#CC1C(=N)Oc2n[nH]c(C(F)(F)F)c2C1c1ccccc1 (stereo not drawn)	1	1
105	CCC1(C)CC(c2csc(N)n2)CCO1 (stereo not drawn)	1	-4
106	CC(Nc1ccc(N(C)C(C)C)c(F)c1)C(=O)N1CCCC1 (stereo not drawn)	1	-2
107	Cc1n[nH]c(=O)c2c(NC(=O)CSc3nnc(C)n3C3CC3)oc(C)c12	23	24
108	CCSCCOC(=O)C1=C(C)NC2=C(C(=O)CC(c3ccc(Cl)cc3)C2)C1c1ccccc1F (stereo not drawn)	1	8
109	CC(C)(C)C(C)(O)C#CC#CC(C)(O)C(C)(C)C (stereo not drawn)	0	0
110	CCN(CC(=O)Nc1cc(C(C)(C)C)nn1-c1ccc(F)cc1)C(=O)Nc1ccc(Br)cc1	-5	-3
111	O=C(c1ccc(-c2ccoc2)nc1)N1CCC(Oc2cccnc2)CC1	23	11
112	CO/N=C(/C(=O)NCCc1ccc(F)cc1)c1csc(NC=O)n1	-11	-22

# These rows are one share of the data; count on the stated rates, not on these rows.
